# From PubChem BioAssay
# Beta cell apopt: inhibitors of cytokine-induced beta cell apoptosis, primary screen, luminescence | INS-1E cytokine-induced death, ATP luminescence, 48 h; percent of positive-control rescue, neutral wells zero | protection from apoptosis, % (concentration not given with the values) | 300,000 compounds, 0.8% hits;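 active = all replicates at 75% or more, or half of them and the mean; inconclusive = half reach 75% but not the mean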;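 also: 0% = cytokine-treated negative control wells and 100% = positive control rescue; higher means more ATP so stronger rescue from cytokine killing; wells of about 40 µL received 100 nL stock; the first replicate is given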
# Calb FLC: C. albicans growth inhibition with fluconazole, primary screen, CaCi-2 strain, Alamar Blue fluorescence. C. albicans CaCi-2 (fluconazole-resistant clinical isolate) + fluconazole, 48 h. growth inhibition, % (concentration not given with the values). 300,000 compounds, 0.57% hits. AID 1979, 2009;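 active = most replicates above 75%; inconclusive = exactly half above 75%; inactive = most below 75%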;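 also: all wells also contain fluconazole at 8 µg/ml as a sub-toxic cotreatment; 0% = median of DMSO wells and 100% = median of geldanamycin control wells; wells of about 8 µL received 7.5 nL stock; the first replicate is given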
# LANA-H2B inh: blockers of LANA interaction with H2A/H2B – biochemical, FP readout, HTS, primary screen; cell-free LANA-H2A/H2B peptide, fluorescence polarization; Protein LANA1 (Human herpesvirus 8 type P (isolate GK18)), Q9QR71; 320,000 compounds, 0.6% hits; inhibition, % (test concentration not listed); in the data active = inhibition mostly above about 10%, no sharp cut-off; inactive = mostly below about 6.7%;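 also: stock transfer was 7.5 nL into about 10 µL; 0% = median of vehicle wells and 100% = median of positive control wells; one replicate is shown; the record names a cut of 25% in any replicate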
# B2AR ag: beta2AR agonists driving receptor internalization, primary screen, cell-based, FAP fluorogen, flow cytometry. AID 504454, 2011. Beta-2 adrenergic receptor (Homo sapiens), P07550. response, % (no concentration beside the values). Am2.2-beta2AR cells; reference of the scale not given here. 340,000 compounds, 0.43% hits;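 active = response above a set limit, near 3 SD of response in nonfluorescent compounds, cut at about 42% in these data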;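 also: stock transfer was 100 nL into about 11 µL; a reference agonist was the positive control; negative values mostly stem from fluorescent compounds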
# Target sequence (P07550 whole entry, looked up): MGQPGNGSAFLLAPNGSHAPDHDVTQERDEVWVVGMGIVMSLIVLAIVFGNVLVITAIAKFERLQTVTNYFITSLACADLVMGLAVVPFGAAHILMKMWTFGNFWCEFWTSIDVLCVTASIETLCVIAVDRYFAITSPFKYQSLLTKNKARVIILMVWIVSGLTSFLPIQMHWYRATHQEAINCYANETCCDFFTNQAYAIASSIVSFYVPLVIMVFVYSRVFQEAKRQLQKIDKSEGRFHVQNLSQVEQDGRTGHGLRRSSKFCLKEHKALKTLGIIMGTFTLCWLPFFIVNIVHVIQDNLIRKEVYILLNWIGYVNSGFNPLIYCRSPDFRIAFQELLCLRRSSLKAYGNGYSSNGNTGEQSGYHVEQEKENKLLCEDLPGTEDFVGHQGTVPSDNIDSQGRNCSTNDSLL
# Bfl-1 A1 inh: caspase 3/7 activation in MEF A1-2A-BIM cells, primary screen, A1 inhibitor project, cell-based, luminescence, HTS. 330,000 compounds, 0.066% hits. caspase activation, % (no concentration beside the values). Caspase-Glo 3/7 luminescence, 3 h; percent of clofoctol response, vehicle zero;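 active = over half of replicate activation scores above 10%, or exactly half above 10 with the replicate mean above 10; inconclusive = replicate mean below 10 yet half the replicates above 10; inactive = over half of replicates below 10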;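 also: wells of about 30 µL received 50 nL stock; many hits fall short of the cut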
# UCH37 inh: inhibitors of human UCH37 deubiquitinase, primary screen, biochemical, Ub-AMC cleavage, fluorescence; Ubiquitin carboxyl-terminal hydrolase isozyme L5 (Homo sapiens), Q9Y5K5; AID 588478, 2011; 330,000 compounds, 0.33% hits; purified proteasome/UCH37; inhibition, % (no concentration beside the values);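 active = mean of two replicates above 20%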;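 also: 0% = compound-free wells with enzyme and 100% = wells lacking proteasome; stock transfer was 100 nL into about 20 µL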
# Target sequence (Q9Y5K5 whole entry, looked up): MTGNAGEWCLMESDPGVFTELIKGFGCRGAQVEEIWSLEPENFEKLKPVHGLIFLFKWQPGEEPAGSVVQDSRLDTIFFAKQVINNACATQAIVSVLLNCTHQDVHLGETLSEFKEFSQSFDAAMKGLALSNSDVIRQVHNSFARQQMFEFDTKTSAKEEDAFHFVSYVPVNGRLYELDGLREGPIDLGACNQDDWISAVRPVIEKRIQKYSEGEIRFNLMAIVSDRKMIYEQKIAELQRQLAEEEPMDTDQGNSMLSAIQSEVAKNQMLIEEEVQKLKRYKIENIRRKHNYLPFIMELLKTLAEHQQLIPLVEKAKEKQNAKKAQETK
#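 Test system – human UCH37 enzyme supplied as purified proteasome complex · Incubation – 30 min preincubation with enzyme, 25 min cleavage at room temperature · Detection – AMC fluorescence from Ub-AMC cleavage, excitation 355 nm, emission 460 nm · Benchmarks – no-proteasome wells (full inhibition) and compound-free wells (no inhibition)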
# RanGTP-Imp inh: inhibitors of RanGTP-importin-beta interaction, primary screen, biochemical, FRET, CFP-Ran, YFP-importin-beta, homogeneous | 300,000 compounds, 1.1% hits | AID 2216, 2009 | Ran GTPase (GTP-bound) - importin-beta complex | cell-free CFP-Ran/YFP-importin-beta FRET ratio | inhibition, % (test concentration not listed);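 active = most replicates above 15%; inconclusive = exactly half above 15%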;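 also: 0% = DMSO wells and 100% = Ran loaded with GDP instead of GTP; wells of about 40 µL received 100 nL stock; the first replicate is given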
# T cruzi inh: inhibitors of intracellular T. cruzi growth, primary screen, luminescence, NIH3T3 host cells; T. cruzi beta-gal in NIH3T3, 90 h; inhibition, % (concentration not given with the values); 300,000 compounds, 1.4% hits; AID 1885, 2009;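 active = mean inhibition across valid replicates above about 55%, limit read from the data; inconclusive = mean below that limit but half or more replicates reach it; inactive = mean below it, under half of replicates reach it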;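 also: signal also drops with host cell toxicity which is not excluded here; 0% = plate median of DMSO wells and 100% = zero luminescence signal; higher percent means less beta-gal luminescence so fewer parasites; stock transfer was 50 nL into about 50 µL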
# Starred values were filed as active, the others as inactive; ? = inconclusive; nt = not tested or not shown.
SMILES,Beta cell apopt,Calb FLC,LANA-H2B inh,B2AR ag,Bfl-1 A1 inh,UCH37 inh,RanGTP-Imp inh,T cruzi inh
O=C(N/N=C/c1ccc(-c2cccc([N+](=O)[O-])c2)o1)[C@H]1C[C@@H]1c1ccccc1,6.3,-17.2,-3.1,-1.3,0.9,nt,-0.8,24.3
Cc1oc(S(=O)(=O)N2CCCCC2)cc1NC(=O)Nc1ccccc1,-6.2,-4.7,-4.2,0.8,0.1,0.8,-3.6,3.3
CC1(C(=O)Nc2nnc(C(C)(C)C)s2)Cc2ccccc2C(=O)O1 (configuration not stated),2.1,43.2,-1.1,-0.3,1.5,2.5,?,-12.9
CC1CC(C)(C)Nc2ccc(OC(=O)c3ccco3)cc21 (configuration not stated),-20.5,20.7,-1.8,7.4,-0.1,-0.5,-1.4,10.7
O=C(OC(C(=O)NCC1CCCO1)c1ccccn1)c1cccs1 (configuration not stated),0.9,5.6,6.5,11.9,-0.6,1.8,1.8,-6.6
CCOc1ccc(CN2CCN(Cc3cnc(-c4ccccc4)s3)CC2CCO)cc1 (configuration not stated),0.5,17.2,-1.0,-1.4,1.1,2.9,1.8,56.1*
CCOc1ccc(S(=O)(=O)n2cc(-c3ccc(F)cc3)c(N)n2)cc1,3.1,-10.0,3.1,-11.0,0.3,-0.1,2.2,6.9
Nn1c(SCC(=O)Nc2nccs2)nnc1C1CC1,-1.9,-3.7,0.5,-2.8,1.0,-0.4,1.4,-9.6
O=C(CCN1CCN(c2ccccc2F)CC1)Nc1cccc(F)c1,nt,2.1,-0.9,-3.1,0.0,3.3,-3.5,-11.3
O=C(c1ccco1)N1CCCC(Nc2ccc3c(c2)OCCO3)C1 (configuration not stated),-13.8,-4.6,2.8,-0.1,-1.2,1.3,2.1,-4.9
CC(C)(C)c1ccc(CSc2nc(N)cc(=O)[nH]2)cc1,21.6,-4.9,-0.4,8.5,0.2,2.2,1.5,-10.8
CC1CCN(C(=O)COc2cccc3c2CCN(Cc2ccccc2)C3=O)CC1,1.5,9.2,-3.1,-2.3,1.0,3.8,nt,nt
CCn1c(CC(=O)Nc2cccc(OC)c2)nnc1SCC(=O)N1CCN(c2ccccc2)CC1,-0.5,5.1,0.7,5.8,-1.7,4.0,2.4,4.0
CCCC1c2ccc(C)n2CCN1C(=O)Nc1ccc(F)cc1 (configuration not stated),-1.4,-12.2,2.4,-7.1,-0.7,-3.1,7.3,-0.9
COC(=O)CCN(C(=O)c1ccc(OC(C)=O)cc1)c1ccccn1,-4.3,15.7,0.3,-0.2,0.4,3.2,-1.1,-13.9
Cc1ccccc1NC(=S)NCCc1ccccn1,0.7,6.8,-2.3,-0.8,0.5,-0.5,2.1,-10.4
Cc1cccc(C)c1OCCSc1n[nH]c(N)n1,-7.7,-0.5,-4.7,-1.4,-0.4,4.4,2.3,-0.8
Clc1ccc(CSc2nncn2-c2ccccn2)cc1,-5.1,-11.5,3.1,-8.4,0.1,-1.3,-0.4,13.5
CC1CN(Cc2nc3c(c(=O)n(C)c(=O)n3C)n2Cc2ccccc2)CC(C)O1 (configuration not stated),5.3,-1.6,3.9,-0.7,0.4,2.5,-3.8,-2.5
O=C(CSc1nc(N2CCOCC2)nc(N2CCOCC2)n1)Nc1ccccc1F,-6.3,2.7,3.8,-3.3,0.6,2.1,1.6,7.0
O=C(NCc1ccccn1)c1ccc(Br)s1,-6.4,?,1.7,-8.8,0.5,1.2,4.8,-11.7
O=C1/C(=C/c2ccccc2)CCC1C1CCCC1 (configuration not stated),-5.1,-41.0,-0.4,-14.7,-1.1,0.0,-1.2,1.2
COc1ccc(F)cc1C(=O)C1CCCN(C(=O)c2ccc(C(C)=O)s2)C1 (configuration not stated),nt,-8.5,nt,1.8,nt,-3.1,5.5,0.0
Cc1ncc([N+](=O)[O-])n1CCOC(=O)C12CC3CC(CC(C3)C1)C2,-4.2,-20.6,-4.2,2.4,-0.4,3.3,?,-8.5
CCc1ccc(NC(=O)CSc2nc(=O)n(CCCN3CCOCC3)c3c2CCC3)cc1,5.4,6.1,0.1,-3.5,-0.6,6.0,3.7,3.0
CCOc1ccc2nc(NC(=O)c3ccccn3)sc2c1,76.9*,-26.6,-0.1,24.1,-7.0,-2.1,-5.0,46.0
Cc1ccc(Cn2ccc(NC(=O)c3cc(C4CC4)on3)n2)cc1,-1.3,-2.4,5.5,10.9,-0.6,-1.6,?,43.0
CCC1(C)Cc2nc3sc(C(=O)O)c(N)c3cc2CO1 (configuration not stated),nt,13.6,0.8,2.1,-0.4,0.4,?,1.7
O=C1CC(c2ccccc2)CC(O)=C1C=NCc1ccc(Cl)c(Cl)c1 (configuration not stated),-8.1,-5.0,-4.2,-2.0,0.8,-7.7,?,-3.7
Cn1cccc1/C=C1/SC(=O)N(CC(=O)N2CCCC2)C1=O,-5.5,7.0,2.7,-1.6,0.7,-1.2,0.8,8.3
CCOc1cc(N2CCOCC2)c(OCC)cc1NC(=O)c1ccc(C)cc1,2.7,16.6,1.9,-2.4,0.1,3.9,4.3,18.8
CC(Sc1nnc(-c2ccncc2)n1C)C(=O)NCC1CCCO1 (configuration not stated),-1.2,8.1,-7.9,9.5,0.1,-0.2,3.9,-6.1
CCOC(=O)N1CCN(c2cc(=O)n(-c3ccccc3Cl)c(=O)[nH]2)CC1,-3.3,-1.5,-2.1,-2.4,0.6,6.3,11.4,-5.0
Cc1ccc2nc3c(cc(C(=O)NC4CCCC4)c(=N)n3CCCn3ccnc3)c(=O)n2c1,-2.5,1.9,2.9,nt,0.5,-182.0,156.2*,2.6
COC(=O)c1c(-c2cccc(C)c2)csc1N,-1.7,15.9,11.0,9.1,0.2,1.2,2.5,3.4
Cc1c(C(=O)OCC(=O)N(C)C2CCS(=O)(=O)C2)oc2ccc(Br)cc12 (configuration not stated),0.8,0.3,-3.9,8.6,-2.2,-1.3,6.9,-15.8

# Single entries from the results shown.
# Entry of CCC1(C)Cc2nc3sc(C(=O)O)c(N)c3cc2CO1 (configuration not stated) under UCH37 inh: 0.4
# Entry of Cc1ccc2nc3c(cc(C(=O)NC4CCCC4)c(=N)n3CCCn3ccnc3)c(=O)n2c1 under Calb FLC: 1.9

# (more compounds)
SMILES,Beta cell apopt,Calb FLC,LANA-H2B inh,B2AR ag,Bfl-1 A1 inh,UCH37 inh,RanGTP-Imp inh,T cruzi inh
CC(=O)Nc1cccc(-c2nnc(SCC(=O)n3c4c(c5ccccc53)CCCC4)n2C)c1,-7.2,-13.3,1.7,-3.0,0.6,2.1,4.0,3.6
Cc1ccc(N(CC(=O)NCC2CCCO2)C(=O)CCC(=O)Nc2nccs2)cc1 (configuration not stated),-4.7,3.2,7.4,-4.5,0.3,3.7,1.2,-3.8
Cc1ccc([N+](=O)[O-])c(C(=O)Nc2cccnc2Cl)c1,0.3,-17.1,1.3,4.6,1.0,5.0,3.1,-6.5
COc1cc(S(=O)(=O)N2CCOCC2)ccc1NC(=O)COC(=O)c1ccccn1,nt,4.0,-0.7,4.7,-0.1,1.7,3.3,-12.4
CC1SC(=NC(=O)C(C)N2C(=O)c3ccccc3C2=O)NC1=O (configuration not stated),-0.1,-13.3,4.9,0.0,-0.2,3.1,4.6,-5.3
COc1cccc(/C=N/Nc2ncnc(Cl)c2N)c1O,127.0*,-0.4,2.1,12.5,-3.7,nt,-3.1,-3.5
CCOC(=O)c1oc2ccccc2c1NC(=O)CCl,-14.0,7.9,-3.7,-0.4,0.1,-5.4,1.1,?
Cc1ccc2c(c1)=C(c1sc(N(C)c3ccc(O)cc3)nc1O)C(=O)N=2,3.9,-2.2,-0.1,0.2,-2.6,8.0,6.2,21.4
CCOCCCN1C(=O)C(O)=C(C(C)=O)C1c1cccs1 (configuration not stated),-8.3,3.4,2.1,6.8,0.4,9.2,6.5,-6.7
CCn1c(SCC(=O)C(C)(C)C)nnc1-c1ccccc1OC,-1.8,9.4,-4.2,6.5,0.0,5.0,-4.8,8.2
O=C(O)Cc1ccc(NC(=O)Nc2cccc3ccccc23)cc1,-2.1,0.0,-2.3,4.9,0.7,1.4,-0.4,-11.8
CCc1ccc[n+](-c2nc([O-])sc2C=O)c1,0.5,0.0,1.3,-1.5,-1.1,8.7,1.8,0.7
COc1ccc(CN(C)CC(=O)NC(=O)NCc2ccccc2)cc1OC,-0.8,4.9,4.9,5.3,-0.3,2.0,-0.2,0.8
CC(C)c1nnc(NC(=O)COC(=O)/C=C/c2ccc([N+](=O)[O-])cc2)s1,5.5,-11.5,1.4,4.1,3.0,8.0,-1.1,-9.9
COC(=O)c1cc(OC)c(OC)cc1N1C(=O)CCCC1=O,nt,-7.9,10.4,1.4,0.3,-0.3,?,-6.8
CN1CCN(S(=O)(=O)c2cccc(C(=O)Nc3sccc3C#N)c2)CC1,-2.1,nt,-0.3,16.0,0.8,5.5,nt,nt
COc1ccc(OC)c(NC(=O)COC(=O)CN(C)S(=O)(=O)c2ccc(C)cc2)c1,-1.7,-5.2,-0.8,15.1,0.5,2.0,-6.9,7.2
CC1CCCN(CCOc2ccc(Br)cc2)C1 (configuration not stated),0.1,-6.1,-0.2,7.8,-0.6,-0.1,0.5,0.7
Cc1cc(-c2ccccc2)n2nc(N)nc2n1,-0.4,1.6,5.7,6.6,0.0,-52.5,-1.5,5.5
O=C(CCC1N=C2c3ccccc3N=C(SCc3ccc(Cl)cc3)N2C1=O)NCc1ccco1 (configuration not stated),-3.7,15.3,3.3,-13.0,0.8,-16.0,27.3*,22.2
COc1ccc(N(Cc2cc3ccc(C)cc3[nH]c2=O)C(C)=O)cc1,-3.5,5.1,0.4,-9.2,-0.9,2.5,5.2,-6.8

# Profiles, quoted from the list. Order of values: Beta cell apopt	Calb FLC	LANA-H2B inh	B2AR ag	Bfl-1 A1 inh	UCH37 inh	RanGTP-Imp inh	T cruzi inh
# `COC(=O)c1cc(OC)c(OC)cc1N1C(=O)CCCC1=O` is listed as nt	-7.9	10.4	1.4	0.3	-0.3	?	-6.8
# `Cc1cc(-c2ccccc2)n2nc(N)nc2n1` is listed as -0.4	1.6	5.7	6.6	0.0	-52.5	-1.5	5.5
# `O=C(CCC1N=C2c3ccccc3N=C(SCc3ccc(Cl)cc3)N2C1=O)NCc1ccco1` (configuration not stated) is listed as -3.7	15.3	3.3	-13.0	0.8	-16.0	27.3*	22.2
# `CN1CCN(S(=O)(=O)c2cccc(C(=O)Nc3sccc3C#N)c2)CC1` is listed as -2.1	nt	-0.3	16.0	0.8	5.5	nt	nt
# `COc1ccc(N(Cc2cc3ccc(C)cc3[nH]c2=O)C(C)=O)cc1` is listed as -3.5	5.1	0.4	-9.2	-0.9	2.5	5.2	-6.8
